# Bioassay records (PubChem)
# Tgondii IFNg – T. gondii growth inhibition with IFN-gamma, primary screen, cell-based. AID 1259416, 2018. 69,000 compounds, 3.8% hits. Toxoplasma gondii growth in IFN-gamma-treated host cells; stronger effect = lower value; reference of the scale not given here. activity change, negative = inhibition, %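 (about 20 µM by stock and volumes)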;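 active means below -70%; inconclusive means fit judged invalid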;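 further: host cells are HeLa cells infected with Toxoplasma gondii; parasite growth read as luciferase light; one replicate is shown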
# Active calls of the source: *; ? = inconclusive. These rows are one share of the data, so the mix of outcomes need not match the whole.
Compound	Tgondii IFNg
c1coc(CN2CC[C@@H]3C[C@H](c4nc(C5CC5)cs4)O[C@H]3C2)c1	146.9
Cc1cnc(-n2cnnc2)c(-c2ccc(S(C)(=O)=O)cc2)c1	1.5
O=C(c1cn2cccnc2n1)N1CCOC(C(F)(F)F)C1 (stereo not given)	0.0
Cc1cccc(-c2c(-c3ccccc3)ncn2CCc2ccccn2)n1	-12.7
Cc1ccccc1NC(=O)N1C[C@@H](O)[C@H](NCc2ncccc2C)C1	0.3
Fc1ccccc1CN(CCCn1ccnc1)Cc1ccc(-n2cccn2)cc1	-14.5
CN(C)C(=O)N1CCCn2cnc(CS(C)(=O)=O)c2C1	-2.2
C1CCC(c2nc(CN3CCCCC3CCN3CCOCC3)no2)C1 (stereo not given)	6.1
CO[C@H]1CN(C)C(=O)c2ccc(NC(=O)Nc3c(C)noc3C)cc2OC[C@@H](C)N(CCC(F)(F)F)C[C@@H]1C	-12.1
Cc1cccc(N2C[C@H]3CN(C(=O)c4ccccc4)C[C@H]3C2)n1	9.6
CCN1CCCC(c2nccn2CCc2n[nH]c(=O)[nH]2)C1 (stereo not given)	-12.1
COCCC1COC2(CCCN(C(=O)c3cnccn3)C2)C1 (stereo not given)	5.1
CCS(=O)(=O)N1[C@H](C#N)[C@H](c2ccc(C#Cc3ccccc3F)cc2)[C@@H]1CO	16.7
COc1ccc2oc(CNC(=O)c3cnn4c3CCCC4)nc2c1	7.3
c1cc(COCc2cncc3c2CCN(Cc2ccoc2)C3)ccn1	6.1
Cc1cc(NC(=O)Cc2cccs2)ccc1NC(=O)c1ccco1	23.4
CCc1ccccc1NC(=O)c1nnn(Cc2nc(-c3ccccc3OC)oc2C)c1C	21.0
O=C(c1cc2ccccc2[nH]1)N1CCC(CO)(CCCc2ccccc2)CC1	-0.1
CCc1nnc(CNC(=O)c2cc(C(C)C)nn2C)s1	1.0
Cc1noc(C)c1S(=O)(=O)N(C)C[C@H]1OCc2ccccc2-c2c(n(C)c3ccccc23)C(=O)N([C@@H](C)CO)C[C@@H]1C	63.7
CN1CCN(CC#N)C2(CCN(C(=O)c3cccn3C)C2)C1=O (stereo not given)	237.7
Cn1c(-c2ccccc2)cnc1NC(=O)c1nonc1N	-104.5*
Cc1cc(CN(CCO)Cc2cccnc2)c(C)n1-c1cccnc1	26.5
COc1ccc(-c2nc(CN(c3ccccc3OC)S(=O)(=O)c3cccs3)c(C)o2)cc1	1.3
Cn1c(CNC(=O)C2CCC2)nc2c1CN(C(=O)c1ccc(C(F)(F)F)s1)CC2	-44.5
c1cc(-c2ccn[nH]2)cc(-n2cnnc2)c1	70.9
Cn1c(CNCc2ccccc2)nc2ccccc21	5.7
CCN1CCC(n2nccc2NC(=O)c2cc(C(F)(F)F)nn2C)CC1	5.4
CC(C)NC(=O)N1CCC2(CC(Nc3cnccn3)CO2)C1 (stereo not given)	-31.5
CN1CCN(S(=O)(=O)c2cccc(S(=O)(=O)c3ccc(Cl)c(Cl)c3)c2)CC1	-47.4

# (list continues)
Compound	Tgondii IFNg
COc1ccccc1C1(CC(=O)N2CCCCC2)CCOC(C(C)C)C1 (stereo not given)	31.5
CO[C@@H]1C[C@H]2CN(C(=O)c3cnc(C)cn3)CCN2C1	1.7
CCCc1cc(C(=O)N2[C@@H]3CC[C@H]2CNC(=O)C3)cs1	19.9
Cn1nccc1CN1CC[C@@H]2OCCN(C(=O)c3cccnc3)[C@@H]2C1	4.4
Cc1ccccc1S(=O)(=O)N1CCCn2nc(C(=O)N3CCCC3)cc2C1	1.1
Cc1ccoc1C(=O)N1CC[C@H]2CO[C@@H](CN3CCN(C)CC3)[C@@H]2C1	-51.1
COc1ccc(C)cc1NC(=O)C(=O)NCCc1csc(-c2cccc(F)c2)n1	26.7
Cc1ccc2c(c1)C(=O)NC1(CCN(C(=O)NCCc3ccccc3)CC1)N2C	-26.0
COc1ccc(CN2CCC(CNS(=O)(=O)c3cccc(C(F)(F)F)c3)CC2)cc1	?
CCC1=NC2(CCC(C(=O)N3CCN(c4ccccn4)CC3)CC2)C(=O)N1CC1CC1 (stereo not given)	8.8
COC(=O)CSc1ccnc2cc(Cl)ccc12	9.2
CCOCC1CN(C(=O)/C=C/c2cccs2)Cc2cncn2C1 (stereo not given)	-5.5
CC(=O)Nc1cccc(NC(=O)C(=O)NCCc2sc(-c3ccc(Cl)cc3)nc2C)c1	271.0
O=C(Cc1ccc(Cl)cc1)N1CCN(S(=O)(=O)c2cc3c4c(c2)CCN4C(=O)CC3)CC1	38.4
CCOc1ccc(C(C)N(C)C(=O)Cc2nc3nc(C)c(C)c(=O)n3[nH]2)cc1 (stereo not given)	-21.3
CC(=O)N1CCc2cc(C(O)CN3CCN(c4nsc5ccccc45)CC3)ccc21 (stereo not given)	66.7
CCSc1nc(CC(=O)NCc2nnc3n2CCC3)cs1	-48.7
CC[C@H](C(=O)N1CCCC[C@H]1C(=O)O[C@H](CCc1ccc(OC)c(OC)c1)c1cccc(OCC(=O)NCCNC(=O)COc2cccc([C@@H](CCc3ccc(OC)c(OC)c3)OC(=O)[C@@H]3CCCCN3C(=O)[C@@H](CC)c3cc(OC)c(OC)c(OC)c3)c2)c1)c1cc(OC)c(OC)c(OC)c1	-71.7*
Cc1noc(-c2cc(=O)n(CC(=O)NCc3ccccc3Cl)c3ccccc23)n1	47.7
CCOC[C@@]12COC[C@@H]1CN(Cc1ccc3c(c1)OCO3)C2	248.1
CCOC(=O)c1ccc(Nc2nc3nonc3nc2NCc2ccco2)cc1	-101.6*
COc1ccccc1-c1ccccc1[C@H]1[C@@H](C#N)N(C(=O)C2CCOCC2)[C@@H]1CO	-15.8
COCCN1CCC2(CC1)CC(c1cccnc1)C(=O)N2C (stereo not given)	10.2
Cc1nccn1CCNC(=O)c1ccc(OC2CCN(S(C)(=O)=O)CC2)c(Cl)c1	43.7
O=C(C[C@@H]1C=C[C@@H](NC(=O)C2CCC2)[C@H](CO)O1)NC1CCCCC1	-0.5
CN(C)CC(=O)N1CCc2ncnc(-c3ccsc3)c2CC1	-11.8
CN(C)C(=O)c1cccc(-c2cccc(-c3nc(C(=O)N4CCCCC4)cc4c3[C@H](CCO)N([S@@](=O)C(C)(C)C)C4)c2)c1	-29.3
CC(=O)N1c2ccc(NC(=O)COc3ncnc4ccccc34)cc2CC1C (stereo not given)	76.7
CC(=O)Nc1nc(C2CN(C(=O)c3ccn(C)n3)C2)cs1	-3.6
O=C(c1ccco1)N1CCN(C(=O)c2nc(-c3cccc(F)c3)n3c2CCCCC3)CC1	26.8

# Reprinted from the part before: 3 entries; new compounds follow.
Compound	Tgondii IFNg
CC(=O)N1c2ccc(NC(=O)COc3ncnc4ccccc34)cc2CC1C (stereo not given)	76.7
CC(=O)Nc1nc(C2CN(C(=O)c3ccn(C)n3)C2)cs1	-3.6
O=C(c1ccco1)N1CCN(C(=O)c2nc(-c3cccc(F)c3)n3c2CCCCC3)CC1	26.8
CCCN1CCN(C(=O)c2nccn2C)CC(Cc2ccc(-c3ccccc3)cc2)C1=O (stereo not given)	18.6
CCn1nnc2c1CCN(C(=O)N(C)C)C2COCc1cccnc1 (stereo not given)	2.7
COC(=O)[C@H]1[C@H](CO)[C@H]2Cn3c(ccc(-c4cncnc4)c3=O)[C@H]2N1CCC(F)(F)F	-3.5
Cc1ccc(SCC(=O)c2ccc(Br)cc2)cc1	-41.6
O=C(CN1CCN(c2nccs2)CC1)N1c2ccccc2SC2C=CC=CC21 (stereo not given)	17.9
CC(=O)Nc1cccc(-c2ccc(C(=O)N3CCOCC3)o2)c1	11.6
O=C(O)CN1CCC2(CCc3cc(-c4ccncc4)ccc32)CC1	-0.1
C[C@@H]1CN([C@@H](C)CO)C(=O)c2cc(-c3cccc(C#N)c3)cnc2O[C@@H]1CN(C)C(=O)C1CCOCC1	89.7
Cc1ccnn1CCNC(=O)CCc1ccc(Cl)cc1	-34.1
O=C(c1ccccc1)c1cc2c(cc1Br)OCCCO2	18.7
O=S(=O)(c1cccc(F)c1)N1CC[C@H]2[C@H](CO)Nc3ccc(Br)cc3[C@H]21	12.7
Cl/C(=C\n1cncn1)c1ccc(Cl)cc1Cl	-58.9
CC(C)C(=O)N1CCC2(Cc3ccccc3NC2=O)C1 (stereo not given)	152.3
CC(C)=CCCC(C)CN1CCC(N2CCC(C(=O)N3CCCC3)CC2)CC1 (stereo not given)	?
COCC(=O)N1[C@@H]2CN(C(=O)c3cccnc3)c3ccccc3[C@@H]2[C@@H]1CO	-6.7
CC(C)N(C)Cc1nnc2n1CCN(C(=O)c1cccs1)CC2	-4.3
CCn1c(C2CCCN(Cc3ncc(C)[nH]3)C2)nn(CCN(C)C)c1=O (stereo not given)	2.6
CCN(C)C(=O)c1ccc(N2C[C@H]3CC=CC[C@H]3C2)nc1	236.0
COc1ccc(-c2ncccc2C(=O)N2C[C@H]3CC[C@@H]2C3)cn1	-0.6
COc1cccc(N2CC3(CCN(c4nccs4)C3)CC2=O)c1 (stereo not given)	-4.0
CN(Cc1n[nH]c(=O)n1CC1CCCCC1)S(C)(=O)=O	4.9
N#C[C@@H]1[C@H](c2ccccc2-c2cccc(F)c2)[C@H](CO)N1C(=O)NC1CCCCC1	-25.5
CCC(CC)(CC(=O)Nc1cccc(/C=C/c2nc(C3CCC3)cs2)c1)C(=O)O	86.3
N#CCSC1=Nc2ccccc2C2=NC(CCC(=O)NCc3cccs3)C(=O)N12 (stereo not given)	28.8
CCCNC(=O)N1CCC2(CC1)Nc1ccccc1-n1cccc12	99.8
COCC(C)NCc1cc(-c2ccccc2)cn2c(=O)n(C)nc12 (stereo not given)	118.8
CC(=O)O[C@H]1CC[C@H]2[C@@H]3CCc4cc(O)ccc4[C@H]3CC[C@]12C	-5.6
Cc1nc(-c2ccc(Cl)cc2)sc1CCNC(=O)C1CCCC1	13.2
O=C(C1CCN(c2cncnc2N2CCOCC2)CC1)N1CCC(N2CCCCC2)CC1	56.1
Fc1ccc(CSc2nc(NCc3ccc(Cl)cc3)c3ccccc3n2)cc1	-19.3

# (next part)
compound | Tgondii IFNg
CO[C@@H]1CC[C@@H]2CCOc3c(C#N)cccc3C(=O)N(C)C[C@@H](OC)[C@H](C)C(=O)N(C)C[C@@H]1O2 | -16.3
CO[C@H]1CC[C@@H]2CCOc3c(C#N)cccc3C(=O)N(C)C[C@@H](c3ccccc3)CC(=O)N(C)C[C@H]1O2 | -41.5
CC(C)n1nc(CN(C)C)c2c1CNC2 | 13.6
CN(C)C(=O)C[C@@H]1CC[C@H]2[C@@H](COC[C@@H](O)CN2C(=O)C2CCOCC2)O1 | 48.4
Cc1cc(C)n(C2CCN(Cc3cccn3-c3ncccn3)C2)n1 (stereo not given) | 7.5
CCCOC1CCCN(Cc2ccc(O)c(O)c2)C1 (stereo not given) | -41.8
Cc1ccc2c(c1)NC1(CCN(S(=O)(=O)c3ccccc3Cl)CC1)c1cccn1-2 | 19.1
O=C(NCC[C@H]1CC[C@@H](NS(=O)(=O)c2ccc(F)cc2)[C@@H](CO)O1)c1ccc2c(c1)OCO2 | -28.3

# The list goes on:
compound | Tgondii IFNg
OCCCCN1CCCCC1CCc1ccccc1 (stereo not given) | -4.3
COc1ccc(-c2nc(C(=O)N(C)Cc3nnc(-c4ccccc4)o3)cs2)cc1 | -12.9
N#CCN1CCC2(CC1)CC(NS(=O)(=O)C1CC1)c1ccccc1O2 (stereo not given) | -14.9
COc1cccc(C(=O)Nc2ccc3c(c2)C(=O)N(C)[C@H]2CC[C@@H](CC(=O)N[C@@H](C)c4ccccc4)O[C@H]2CO3)c1 | -58.9
CNc1nc(C)c(C(=O)N2CCCC(c3cc(=O)nc4n3CCC4)C2)s1 (stereo not given) | 8.7
O=C(Nc1ccc(C(F)(F)F)cn1)N1CCN(c2ncccc2C(F)(F)F)CC1 | 21.9
N#CCN1CCOC2(CCN(C(=O)c3ccc[nH]3)CC2)c2ccccc21 | 37.7
CNC(=O)[C@H]1C[C@@H]2CN(c3ncc(F)cn3)C[C@H]1O2 | -69.0

# Next section.
compound | Tgondii IFNg
Cc1ccc(Nc2nc(-c3nnc(-c4ccccc4)o3)nc3ccccc23)cc1 | -49.5
O=S(=O)(c1ccccc1)n1cccc1CN1CCCC1c1ccccn1 (stereo not given) | 1.0
CCOCC1CN(S(=O)(=O)c2cccs2)Cc2nccn2C1 (stereo not given) | 67.1
CC(C)CC(=O)N1CC2(CCN(Cc3ccsc3)C2)C1 | -39.5
N#Cc1c(N2CCOCC2)nnc(-c2ccccc2)c1-c1ccccc1 | 39.9
COc1ccc(-c2cc(F)c(OC)c(F)c2)cn1 | -8.9
C=CCOC1C2CCC1N(CCN(CC)CC)CCO2 (stereo not given) | -2.6
Cc1ccc(C)c(N=C2CCCN2Cc2ccccc2)c1C#N | 36.3

# (list continues)
compound | Tgondii IFNg
CCOC(=O)[C@H](CCc1ccccc1)N[C@H]1CCCN2CCC[C@@H](C(=O)O)N2C1=O | 7.4
CCCn1cc(C(=O)NC(c2cc(C)ccn2)C2CC2)c(C)n1 (stereo not given) | 4.4
Cc1noc(C)c1NC(=O)Nc1ccc2c(c1)C(=O)N([C@H](C)CO)C[C@H](C)[C@@H](CN(C)Cc1ccc3c(c1)OCO3)OCCCC[C@@H](C)O2 | -31.4
CC1N=C(SCC#N)N2C(C)N=C(SCC#N)N12 (stereo not given) | 40.7
O=C(Nc1ccc(F)cc1Cl)c1c(O)c2cccnc2n(-c2cccc(F)c2)c1=O | -44.8
Cc1ccc(NC(=O)C2CC(=O)N(CCc3c[nH]c4ccc(C)cc34)C2)c(C)c1 (stereo not given) | 228.6

# Six neighbouring compounds out of the list so far, for reference:
compound | Tgondii IFNg
CCOC(=O)[C@H](CCc1ccccc1)N[C@H]1CCCN2CCC[C@@H](C(=O)O)N2C1=O | 7.4
CCCn1cc(C(=O)NC(c2cc(C)ccn2)C2CC2)c(C)n1 (stereo not given) | 4.4
Cc1noc(C)c1NC(=O)Nc1ccc2c(c1)C(=O)N([C@H](C)CO)C[C@H](C)[C@@H](CN(C)Cc1ccc3c(c1)OCO3)OCCCC[C@@H](C)O2 | -31.4
CC1N=C(SCC#N)N2C(C)N=C(SCC#N)N12 (stereo not given) | 40.7
O=C(Nc1ccc(F)cc1Cl)c1c(O)c2cccnc2n(-c2cccc(F)c2)c1=O | -44.8
Cc1ccc(NC(=O)C2CC(=O)N(CCc3c[nH]c4ccc(C)cc34)C2)c(C)c1 (stereo not given) | 228.6
